Assay outcomes deposited in PubChem by National Center for Advancing Translational Sciences (NCATS).
Rango dissoc inh – inhibition of RanGTP-driven Rango-importin beta dissociation; Biochemical FRET Rango-importin beta, RanGTP-induced dissociation; Potency, µM (top dose mostly 46.1 µM), for inactives: top-dose activity change, negative = inhibition; 340,000 tested, 0.071% active; AID 540253; active means falling FRET ratio curve, often poorly fitted, with flat reads before Ran was added; inconclusive means other falling curves, or compound fluorescence or quenching; inactive means flat or rising ratio curve;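 also: potency is read from the fitted curve at half-maximal effect; % of control where 0% means no effect; nearly all actives have a fitted effect of over 45% in size; -100% = wells without RanGTP and RCC1; the record marks most hits as doubtful in a second field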
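Rango/importin beta premix (0.1/0.25 uM final), PBS + 1 mM DTT + 0.02% Tween-20 + 0.1% BSA; cpd 5 min RT; FRET pre-read; + RanGTP-RCC1 (0.6 uM Ran, 2 mM GTP, 0.2 uM RCC1); 45 min RT; FRET post-read, ex 430, em 486/530 nm.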
Rango complex inh – prevents formation of the Rango-importin beta complex; Rango CFP/YFP FRET sensor + importin beta, 45 min; Potency, µM (doses to about 92.2 µM), for the others: at the top dose inhibition of complex formation; 340,000 tested, 0.031% active; AID 540263; active = rising FRET ratio curve, often small or poorly fitted; inconclusive = mostly compound fluorescence or quenching in the first reads; inactive = flat curves in all reads;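 also: potency is read from the fitted curve at half-maximal effect; 0% = DMSO wells and 100% = buffer wells lacking importin beta; nearly all actives have a fitted effect of over 15% in size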
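FRET biosensor (snurportin 1 IBB flanked by EYFP and cerulean), 50 nM, with compound 5 min, then 0.125 microM importin beta in PBS, 1 mM DTT, 0.02% Tween-20, 0.1% BSA. CFP/YFP ratio read after 45 min at room temperature; pre-read flags interference.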
miR-21 FLuc – raises the signal of a miR-21 reporter | HeLa miR-21 FLuc reporter, luciferase, 48 h | Potency, µM (titrated, usually from 38.3 µM), for the others: top-dose reporter change, positive = more light | 340,000 tested, under 10 active; active = well fitted rising curve with a large enough effect; inconclusive = small, poorly fitted or top-dose-only effect; inactive = no such curve, though single readings can be large or run the other way;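 also: % of control where 0% means no effect; miR-21 action dims this reporter so a rising signal means less miR-21 action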
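Compounds were titrated across several concentrations (up to approximately 40 uM) and incubated 48 hours with HeLa miR-21-FLuc reporter cells (miR-21 target sequence downstream of FLuc, endogenous miR-21). Readout was firefly luciferase luminescence after lytic detection reagent.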
GLA inh pH 4.5 – blocks human alpha-galactosidase A at pH 4.5; P06280; purified enzyme, 4-MU-alpha-Gal fluorescence, pH 4.5; activity change, negative = inhibition, % at 105 µM; 230,000 tested, under 10 active; AID 1467; inconclusive = small, poorly fitted or top-dose-only inhibition, or a rising curve; inactive = flat fitted curve, though single readings scatter; no compound was filed as active;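 also: 0% = full activity with enzyme and -100% = basal without enzyme; dose as in the result columns while the protocol names 77 µM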
Target sequence (P06280 whole entry, looked up): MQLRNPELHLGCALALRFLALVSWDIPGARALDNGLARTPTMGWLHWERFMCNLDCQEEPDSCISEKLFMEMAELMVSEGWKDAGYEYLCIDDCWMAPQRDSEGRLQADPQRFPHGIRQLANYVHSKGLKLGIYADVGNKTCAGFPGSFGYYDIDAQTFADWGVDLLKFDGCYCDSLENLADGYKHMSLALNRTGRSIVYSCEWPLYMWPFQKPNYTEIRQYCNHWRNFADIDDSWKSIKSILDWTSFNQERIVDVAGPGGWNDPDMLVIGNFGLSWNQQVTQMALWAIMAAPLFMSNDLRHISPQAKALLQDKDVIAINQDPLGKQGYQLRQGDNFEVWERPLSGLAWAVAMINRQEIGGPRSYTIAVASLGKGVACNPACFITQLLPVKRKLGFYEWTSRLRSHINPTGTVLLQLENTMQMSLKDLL
An asterisk follows results filed as active; ? = inconclusive; / = not tested or not shown; & = joins results of further samples. Not all compounds are listed; the hit share may differ from the screen's.

Below each compound – Rango dissoc inh	Rango complex inh	miR-21 FLuc	GLA inh pH 4.5
> COc1ccc(/C=N/NS(=O)(=O)c2ccc(NC(C)=O)cc2)cc1
  4.7%	0.9%	6.3%	-7.9
> Clc1ccc(-n2nnnc2-c2cnc(-c3ccccn3)nc2-c2cccs2)cc1
  2.5%	-1.6%	-4.4%	2.6
> Cc1ccc(C)c(CN2CCCN(Cc3cc(C)ccc3C)S2(=O)=O)c1
  2.9%	4.3%	-0.1%&-1.1%	/
> CN(C)Cc1c(C(=O)N/N=C/C2CC=CCC2)nnn1-c1nonc1N (stereo unspecified)
  -16.0%	-0.5%	-3.0%	/
> CC(C)=CCc1c(O)cc(O)c2c1OC(c1ccc(O)cc1)CC2=O (stereo unspecified)
  10.6%	1.8%	/	/
> Cc1ccc(C2NC(=NCc3ccccc3)Nc3nc(C)cc(=O)n32)cc1 (stereo unspecified)
  4.2%	-0.4%	7.9%	1.8
> Cc1sc(NC(=O)CN(Cc2ccccc2)C(=O)C(C)C)c(C(N)=O)c1C
  -13.1%	-0.1%	2.3%	-17.9
> CCN(CC(=O)Nc1ccc(OC)cc1)C(=O)c1ccc(Cl)c(S(=O)(=O)N2CCCC2)c1
  9.5%	5.9%	/	/
> Cc1ccc(S(=O)(=O)n2nc(OC(=O)c3c(F)cccc3Cl)cc2N)cc1
  -11.0%	0.5%	-0.3%	/
> CCN(CC)CCCn1c(=S)[nH]c2cc(C(=O)OC)ccc2c1=O
  -6.8%	-1.1%	-11.4%	8.2
> O=C(Cc1cccs1)Nc1ccc(Cl)c(S(=O)(=O)N2CCOCC2)c1
  -19.7%	0.7%	/	/
> CC1CN(C(=O)CSc2nc(N)cc(N)n2)CC(C)O1 (stereo unspecified)
  -10.7%	-0.4%	/	/
> O=C(Cn1cnc2c(nnn2-c2ccc(F)cc2)c1=O)NCC1CCCO1 (stereo unspecified)
  8.0%	1.7%	-5.5%	8.1
> Cc1ccccc1C(=O)c1cccn1CC(=O)NC(C)c1ccccc1 (stereo unspecified)
  -10.1%	-1.1%	4.5%	/
> Cc1ccc(S(=O)(=O)NNC(=O)C2COc3ccccc3O2)cc1C (stereo unspecified)
  12.8%	0.0%	-1.4%	3.3

(continued)
Below each compound – Rango dissoc inh	Rango complex inh	miR-21 FLuc	GLA inh pH 4.5
> CCOc1ncccc1C(=O)NCc1ccccc1Cl
  14.5%	3.3%	-1.8%	-5.1
> O=C(COC(=O)c1cccc(C(=O)OCC(=O)NC2CC2)n1)NC1CC1
  2.6%	-0.9%	3.4%	-0.4
> Cc1ccccc1C(=O)NC1CCN(C(=O)NCc2ccccc2)CC1
  -5.6%	-1.5%	-0.5%	/
> CCN(C(=O)CSc1nnnn1C)C1CCS(=O)(=O)C1 (stereo unspecified)
  6.5%	-0.8%	/	/
> COc1cccc(/C=N/Nc2ccc([N+](=O)[O-])cc2)c1O
  ?	?	-30.9%	/
> COc1ccnc(-n2cccc2C=O)c1C#N
  2.2%	1.7%	0.0%	3.6
> COC(=O)/C(C(C)=O)=C(\C=C\N(C)C)N(C)C
  -6.9%	0.3%	0.3%	-5.2
> Cc1ccc(OCCC(=O)OCC(=O)C(C)(C)C)cc1
  2.5%	-3.7%	-4.3%	-4.9
> Cc1csc(NC(=O)CSc2nnc(-c3ccoc3C)n2CCc2ccccc2)n1
  -13.1%	-3.6%	3.1%	-4.5
> C/C(O)=C/c1nc2ccccc2[nH]c1=O
  -29.7%	?	-1.5%	-2.0
> COc1ccc(C(=O)NN/C(C)=C/C(=O)C(F)(F)C(F)(F)C(F)(F)F)cc1
  0.5%	-1.3%	-24.2%	-9.6
> CC(C)C(=O)Nc1cccc(NC(=S)NC(=O)c2ccc(Cl)cc2)c1
  -18.1%	-0.3%	3.0%	-1.9
> COc1ccc(CC(=O)N/N=C/C=C/c2ccc3c(c2)OCO3)cc1OC
  19.2%	1.5%	0.3%	0.1
> CCN(CC)CCn1c(N)c(S(=O)(=O)c2ccccc2)c2nc3ccccc3nc21
  -5.3%	?	12.7%	-0.9
> O=c1[nH]nc(Cc2ccc3ccccc3n2)c2ccccc12
  ?	?	-54.6%	-2.3

The list continues:
Below each compound – Rango dissoc inh	Rango complex inh	miR-21 FLuc	GLA inh pH 4.5
> CCC1(C)Cc2c(sc3nnn(Cc4ccccc4Cl)c(=O)c23)CO1 (stereo unspecified)
  12.1%	-0.7%	-4.9%	-13.5
> OC(CNCCc1ccc(Cl)cc1)COc1ccc2ccccc2c1 (stereo unspecified)
  1.2%	-1.4%	8.9%	-7.3
> COc1ccc(C2N(C(=O)N3CCOCC3)CCN2S(=O)(=O)c2ccc(C)cc2)cc1 (stereo unspecified)
  12.7%	-5.5%	1.7%	-0.7
> COC(=O)CNC(=O)C(C)(C)Oc1ccc(Cl)cc1
  1.0%	-0.5%	-2.9%	1.8
> Cn1nc(C(=O)NCC(=O)Nc2ccc(F)c(F)c2F)c2ccccc2c1=O
  4.2%	0.7%	/	/
> O=C(NCc1ccc2c(c1)OCO2)C1CC(=O)N(CCc2ccc(Cl)cc2)C1 (stereo unspecified)
  2.9%	1.7%	-0.8%	/
> CC(=O)N1CCN(c2ccc(NC(=O)/C=C/c3ccccc3)cc2)CC1
  -21.6%	-0.6%	-22.2%	6.3
> COC(=O)c1cc2c(ccn2-c2ccc(F)cc2)n1CC(=O)N1CCN(C(=O)c2ccco2)CC1
  -2.4%	?	-4.5%	-4.4
> O=C(Cc1csc(NC(=O)c2ccc(F)cc2)n1)NO
  -2.9%	0.4%	-2.1%	1.7
> O=C(CSc1nnnn1-c1ccccc1)NCc1cccs1
  8.9%	4.6%	-7.8%	3.4
> O=C(CC(c1ccccc1)c1ccco1)Nc1nccs1 (stereo unspecified)
  14.0%	0.6%	-22.1%	2.6
> CC(C)[C@H]1COCCS(=O)(=O)N1Cc1ccc(Cl)cc1
  12.8%	0.6%	1.7%	/
> COCCCn1c(=S)[nH]c2ncccc2c1=O
  2.6%	0.0%	-6.0%	-0.1
> CCOC(=O)C1=C(C)NC(=O)NC1c1ccc(OCC(=O)N2CCCCC2)cc1 (stereo unspecified)
  -0.5%	-0.5%	-2.9%	6.5
> O=C(C1CCC(N2C(=O)C3CC=CCC3C2=O)CC1)N1CCCCC1 (stereo unspecified)
  -7.3%	-4.5%	4.4%	-2.4

(listing goes on)
Below each compound – Rango dissoc inh	Rango complex inh	miR-21 FLuc	GLA inh pH 4.5
> CCCCOc1ccc(C2C(C(=O)c3cccs3)=C(O)C(=O)N2CCN2CCOCC2)cc1 (stereo unspecified)
  -8.6%	-0.5%	-12.2%	/
> COc1ccc(C(=O)N/C(=C\c2ccccc2)C(=O)Nc2cccc(C(=O)O)c2)cc1
  0.0%	-6.2%	-1.1%	/
> CCOc1ccccc1/C=N/Nc1nc(C)cc(=O)[nH]1
  2.0%	6.6%	-4.9%	/
> Cc1cccc2cc(COC(=O)C3CCCO3)c(=O)[nH]c12 (stereo unspecified)
  -6.4%	-1.4%	-1.6%	15.6
> COC(=O)c1c(NC(=O)c2ccc(C)cc2)sc(Cc2ccccc2)c1C
  -4.8%	2.9%	-4.2%	0.6
> COc1ccc(CCC(C)NC(=O)Cc2ccc(OC)c(OC)c2)c(OC)c1 (stereo unspecified)
  11.8%	-0.1%	3.7%	/
> NC(=O)CC(NC(=O)c1ccc(Br)cc1)c1ccc(N2CCC(Cc3ccccc3)CC2)c([N+](=O)[O-])c1 (stereo unspecified)
  8.7%	1.0%	4.0%	/
> COc1cccc(CNC(=O)COc2ccc(C(=O)c3ccccc3)cc2)c1
  -6.3%	1.6%	14.5%	/
> O=C(O)C1CCN(c2ccccc2[N+](=O)[O-])CC1
  -7.1%	7.5%	-3.0%	-3.8
> NN1C(=O)c2cccc3c(C(=O)O)ccc(c23)C1=O
  5.8%	1.6%	-6.8%	-4.7
> Cc1ccc2c(C)c(C(=O)Nc3c(C)n(C)n(-c4ccccc4)c3=O)oc2c1
  10.1%	-0.8%	2.5%	-5.9
> CCn1cc(C(=O)O)c(=O)c2cc(F)c(N3CCN(C(=S)NC(=O)c4ccc(Br)cc4)CC3)cc21
  -18.4%	8.3%	3.6%	-4.9
> CC(OC(=O)CCN=C1NS(=O)(=O)c2ccccc21)C(=O)Nc1ccc(S(N)(=O)=O)cc1 (stereo unspecified)
  0.1%	0.0%	/	/
> CC(=O)N1CCc2cc(S(=O)(=O)NC(Cc3ccccc3)C(=O)Nc3cc(C)ccn3)ccc21 (stereo unspecified)
  5.6%	5.1%	1.3%	6.7
> CCO/N=C/C1=C(O)C(C(=O)OC)C(C)(C)CC1=O (stereo unspecified)
  5.2%	0.6%	-1.1%	7.1

Later entries.
Below each compound – Rango dissoc inh	Rango complex inh	miR-21 FLuc	GLA inh pH 4.5
> Cc1ccc(CN2CCS(=O)(=O)CC2)o1
  8.4%	0.7%	2.3%	9.6
> COc1ccc(CCNC(=O)C(=O)NCC2CCNCC2)cc1OC
  -17.3%	?	2.4%	-7.8
> O=S(=O)(c1ccc(Br)cc1)N1CCN(Cc2ccco2)CC1
  -3.4%	0.9%	-10.5%	/
> CC(Oc1ccc2c(-c3ccccc3)cc(=O)oc2c1)C(=O)N1CCOCC1 (stereo unspecified)
  -13.5%	-1.0%	/	/
> Cc1cccc(CN2CCN(Cc3nc4c(s3)CCCC4)CC2CCO)n1 (stereo unspecified)
  0.0%	-2.5%	-1.1%	-2.5
> FC(c1nc2ccccc2[nH]1)C(F)(F)F (stereo unspecified)
  -5.5%	4.9%	-0.8%	3.6
> CN(C)c1ccc(C2N(C(=O)N3CCOCC3)CCN2S(=O)(=O)c2ccccc2)cc1 (stereo unspecified)
  -13.3%	-3.5%	-4.7%	3.0
> O=C(O)c1ccccc1Sc1c([N+](=O)[O-])cc(C(F)(F)F)cc1[N+](=O)[O-]
  7.0%	4.8%	8.9%	-0.1
> CCCc1ccc2oc(C(=O)N3CCNC(=O)C3CC(=O)OC)c(C)c2c1 (stereo unspecified)
  18.2%	-3.1%	-36.1%	/
> CCNC(=O)C(=O)Nc1ccc2c(c1)N(S(=O)(=O)c1cccs1)CCC2
  4.0%	0.2%	/	/
> CCCc1cc(-c2[nH]ncc2-c2ccc3c(c2)OCCCO3)c(O)cc1OC
  /	/	22.2%	-15.6
> CC(OC(=O)C1CCCO1)C(=O)NC1CCCC1 (stereo unspecified)
  1.6%	-4.9%	-0.5%	4.0
> C=CCSc1ccccc1C(=O)Nc1ncn[nH]1
  -8.1%	3.0%	1.4%	/
> COc1ccc(Br)c(/C=N/NC(=O)COc2ccc(-c3ccccc3)cc2)c1
  20.4%	1.6%	-7.2%	11.5
> COCCn1c(N)c(NCc2ccccc2)c(=O)[nH]c1=O
  -15.0%	?	-3.7%	/

(continued)
Below each compound – Rango dissoc inh	Rango complex inh	miR-21 FLuc	GLA inh pH 4.5
> O=C(NC1CCCc2ccccc21)C1CCN(S(=O)(=O)c2ccccc2F)CC1 (stereo unspecified)
  -24.3%	-2.7%	2.2%	-0.1
> CCCCc1ccc(N=N/C(C(=O)Nc2ccccc2OC)=C(/C)O)cc1
  9.1%	7.0%	2.0%	-7.6
> O=C(CC1OC(=O)c2ccccc21)Nc1cc(Cl)ccc1N1CCCC1 (stereo unspecified)
  -13.9%	-3.0%	/	/
> COc1ccc(-c2cc([C@H]3[C@@H]4C=CCC[C@@]4(C)C(=O)N3Cc3ccccc3)ccc2F)cc1OC
  19.4%	?	13.0%	-5.4
> CCC(C)N1CC(=O)N2Cc3[nH]c4ccccc4c3C[C@H]2C1=O (stereo partly specified)
  12.0%	0.0%	-12.3%	/
> CCC(=O)Nc1c(S(=O)(=O)c2ccc(C)cc2)c2nc3ccccc3nc2n1C(C)c1ccccc1 (stereo unspecified)
  ?	?	12.6%	18.8

Compound profiles (already shown):
Shown for `COc1ccc(-c2cc([C@H]3[C@@H]4C=CCC[C@@]4(C)C(=O)N3Cc3ccccc3)ccc2F)cc1OC` : Rango dissoc inh = 19.4%; Rango complex inh = ?; miR-21 FLuc = 13.0%; GLA inh pH 4.5 = -5.4
Shown for `O=C(CC1OC(=O)c2ccccc21)Nc1cc(Cl)ccc1N1CCCC1` (stereo unspecified) : Rango dissoc inh = -13.9%; Rango complex inh = -3.0%; miR-21 FLuc = /; GLA inh pH 4.5 = /
